High-throughput results deposited in PubChem BioAssay by National Center for Advancing Translational Sciences (NCATS).
Rango dissoc inh: prevents RanGTP from dissociating the Rango-importin beta complex; 0.071% of 340,000 active; AID 540253; O95149+P62826; Biochemical FRET Rango-importin beta, RanGTP-induced dissociation; Potency, µM (series often up to 46.1 µM), inactives show at the highest dose activity change, negative = inhibition; active means falling FRET ratio curve, often poorly fitted, with flat reads before Ran was added; inconclusive means other falling curves, or compound fluorescence or quenching; inactive means flat or rising ratio curve;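 also: potency is read from the fitted curve at half-maximal effect; % of control where 0% means no effect; nearly all actives have a fitted effect of over 45% in size; -100% = wells without RanGTP and RCC1; the record marks most hits as doubtful in a second field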
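Rango (0.1 uM)–importin beta (0.25 uM) complex; RanGTP-RCC1 trigger; 45 min RT; CFP/YFP FRET read.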
Rango-impB inh: inhibitors of Rango-importin beta complex formation; Q14974; 0.031% of 340,000 active; AID 540263; Rango CFP/YFP FRET sensor + importin beta, 45 min; Potency, µM (titrated, usually from 92.2 µM), without a hit: at the highest dose inhibition of complex formation; active = rising FRET ratio curve, often small or poorly fitted; inconclusive = mostly compound fluorescence or quenching in the first reads; inactive = flat curves in all reads;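 also: potency is read from the fitted curve at half-maximal effect; 0% = DMSO wells and 100% = buffer wells lacking importin beta; nearly all actives have a fitted effect of over 15% in size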
Target sequence (Q14974 whole entry, looked up): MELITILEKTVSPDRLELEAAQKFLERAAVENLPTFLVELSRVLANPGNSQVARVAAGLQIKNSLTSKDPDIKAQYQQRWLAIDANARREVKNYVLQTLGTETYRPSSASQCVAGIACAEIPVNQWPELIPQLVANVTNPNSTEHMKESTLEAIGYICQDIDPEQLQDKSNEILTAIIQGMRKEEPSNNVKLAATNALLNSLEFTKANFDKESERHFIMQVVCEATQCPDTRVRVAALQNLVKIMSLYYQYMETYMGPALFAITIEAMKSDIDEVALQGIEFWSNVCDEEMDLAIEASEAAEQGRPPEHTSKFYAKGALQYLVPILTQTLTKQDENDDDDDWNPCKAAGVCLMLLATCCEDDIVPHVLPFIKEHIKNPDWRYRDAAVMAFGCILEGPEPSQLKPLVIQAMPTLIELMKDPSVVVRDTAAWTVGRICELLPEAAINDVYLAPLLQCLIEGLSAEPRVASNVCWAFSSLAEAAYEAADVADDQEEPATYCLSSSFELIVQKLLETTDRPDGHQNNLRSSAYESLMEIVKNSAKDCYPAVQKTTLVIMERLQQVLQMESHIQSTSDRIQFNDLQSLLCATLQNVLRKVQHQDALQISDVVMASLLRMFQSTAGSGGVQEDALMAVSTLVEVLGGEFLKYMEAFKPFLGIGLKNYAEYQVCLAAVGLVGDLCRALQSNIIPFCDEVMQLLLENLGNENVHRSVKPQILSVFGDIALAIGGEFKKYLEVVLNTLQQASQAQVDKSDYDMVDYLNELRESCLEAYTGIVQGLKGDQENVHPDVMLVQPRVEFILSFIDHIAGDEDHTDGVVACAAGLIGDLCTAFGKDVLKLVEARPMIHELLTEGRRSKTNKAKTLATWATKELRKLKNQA
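FRET biosensor Rango (snurportin 1 IBB between N-terminal EYFP and C-terminal Cerulean), 50 nM in PBS/1 mM DTT/0.02% Tween-20/0.1% BSA, preincubated 5 min RT with compound; 0.125 microM importin beta added, 45 min RT, CFP/YFP FRET ratio read.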
miR-21 reporter: miR-21 reporter, rising signal | HeLa miR-21 FLuc reporter, luciferase, 48 h | Potency, µM (doses to about 38.3 µM), inactives show at the highest dose reporter change, positive = more light | AID 2288 | 340,000 tested, under 10 active; active = well fitted rising curve with a large enough effect; inconclusive = small, poorly fitted or top-dose-only effect; inactive = no such curve, though single readings can be large or run the other way;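 also: % of control where 0% means no effect; miR-21 action dims this reporter so a rising signal means less miR-21 action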
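HeLa cells stably expressing CMV-driven firefly luciferase with a downstream miR-21 binding sequence, endogenously expressing miR-21, were treated with titrations (up to about 40uM final) for 48 hours at 37 degree Celsius. Luciferase luminescence was read after lysis.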
GLA inh pH 4.5: alpha-galactosidase A (human) inhibition, pH 4.5 | 230,000 tested, under 10 active | purified enzyme, 4-MU-alpha-Gal fluorescence, pH 4.5 | P06280 | activity change, negative = inhibition, % at 105 µM; inconclusive = small, poorly fitted or top-dose-only inhibition, or a rising curve; inactive = flat fitted curve, though single readings scatter; no compound was filed as active;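 also: 0% = full activity with enzyme and -100% = basal without enzyme; dose as in the result columns while the protocol names 77 µM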
* marks the source's active call; other numbers are inactive results; ? = inconclusive; · = not tested or not shown; & = joins results of further samples. This is a subset; count on the stated rates, not on these rows.

SMILES | Rango dissoc inh | Rango-impB inh | miR-21 reporter | GLA inh pH 4.5
COc1ccc(CCC(=O)NNC(=O)c2ccc(OC)cc2)cc1 | 3% | 2.2% | -5% | ·
COc1ccc(-c2[nH]ncc2CN(C)CC2CCCCO2)cc1F (configuration not stated) | ? | ? | -1% | -3
CCC(=O)Nc1ccc2c(c1)nc(CN1CCN(C(C)=O)CC1)n2C | 30% | -3.8% | -4% | 0
O=C(N/N=C/C=C/c1ccccc1[N+](=O)[O-])c1cc(-c2cccnc2)nc2ccccc12 | -9% | 0.7% | -1% | -9
CN1CCN(/N=C/c2ccc(OCc3ccccc3)cc2)CC1 | 12% | 3.3% | -37% | -5
CCOC(=O)C1CCCN(C(=O)CCCn2nc(C)n3c(cc4sccc43)c2=O)C1 (configuration not stated) | -10% | 5.9% | -17% | -22
O=S(=O)(Nc1ccc(-c2ccc3nncn3n2)cc1)c1cc(F)ccc1F | 24% | -3.4% | · | ·
Cc1ccc(C(=O)NCc2ccc3c(c2)OCO3)cc1 | -8% | -5.1% | -23% | ·
CC(C)[C@H](NC(=O)C1CCN(S(=O)(=O)c2ccccc2)CC1)C(=O)NCc1ccncc1 | 2% | -2.3% | 1% | ·
CC(C)c1ccccc1NC(=O)COC(=O)/C=C/c1cccc([N+](=O)[O-])c1 | -3% | 2.3% | -5% | -1
COC(=O)Cc1ccc(NC(=S)NN2CCOCC2)cc1 | -16% | -2.6% | -4% | 8
COc1ccc(CNS(=O)(=O)c2ccc3c(c2)CCN3C(=O)C2CCC2)cc1 | -1% | -1.6% | 0% | ·
O=C1CSC(c2ccc(Cl)cc2)N1C1CCCCC1 (configuration not stated) | -6% | 0.0% | -12% | -1
CSc1nc(N)nc(C2CC2)n1 | -2% | -1.5% | -24% | -10
Cc1nnsc1C(=O)NNC(=O)c1cccc2ccccc12 | 7% | 0.1% | -5% | -6
CCC1SC(CC)C(=O)N(CC(=O)Nc2ccc3c(c2)OCO3)C1=O (configuration not stated) | 26% | -2.6% | 2% | -4
CC(OC(=O)c1c2c(nc3ccccc13)/C(=C\c1ccc3c(c1)OCO3)CCC2)C(=O)Nc1ccc(S(N)(=O)=O)cc1 (configuration not stated) | ? | ? | 4% | 0
CCCC(=O)Nc1ccccc1NC(=O)c1ccc(OCC)c(OCC)c1 | 12% | 4.2% | -6% | -26
O=C(Nc1cccc(S(=O)(=O)N2CCCCC2)c1)C1CC(=O)N(c2ccc3c(c2)OCCO3)C1 (configuration not stated) | 6% | -2.2% | 11% | ·
C#CCOCCOCCOCCNc1nc(N2CCN(C(=O)C(Cc3cc4ccccc4[nH]3)n3cc(C(N)Cc4ccc(O)cc4)nn3)CC2)nc(N2CCN(C(=O)C(CCC(=O)O)n3cc(C(N)C(C)CC)nn3)CC2)n1 (configuration not stated) | -2% | -3.0% | · | ·
COc1ccccc1C(=O)NCC(=O)N1CC=C(c2ccccc2)CC1 | 1% | -1.3% | · | ·
O=C(COC(=O)C1CC(=O)N(Cc2ccco2)C1)c1ccc(OC(=O)c2ccccc2)cc1 (configuration not stated) | -3% | 2.3% | -5% | -5
CCOc1ccc(-c2cc(C(=O)NN3CCN(C)CC3)c3cc(Cl)ccc3n2)cc1 | · | · | -2% | -4
CCOc1ccc2oc(C(=O)Nc3ccc4c(c3)OCO4)c(C)c2c1 | -5% | -2.1% | -60% | ·
CCOC(=O)c1cc(-c2cccnc2)nn1-c1ccccc1 | -1% | 1.8% | -1% | 9
O=C(NCc1ccccc1)C(=O)NCC1OCCN1C(=O)c1cccs1 (configuration not stated) | 15% | -3.4% | -9% | 4
CC12CC3CC(C)(C1)CC(CN)(C3)C2 | -21% | -3.1% | -1% | 4
CCOc1ccc(C(CC(=O)O)NC(=O)Cc2ccc(Cl)cc2)cc1 (configuration not stated) | -4% | -1.8% | 1% | ·
NC(=O)c1ccccc1NC(=O)c1cccc(C(=O)Nc2ccccc2C(N)=O)n1 | 2% | 0.3% | · | ·
Nc1c(C(=O)Nc2ccc3c(c2)OCCO3)nnn1Cc1cccc(Cl)c1 | -14% | ? | · | ·
COc1ccc(OC)c(N(CC(=O)N2CCCC2)S(=O)(=O)c2ccccc2)c1 | 29% | 2.8% | -2% | ·
CCOC(=O)CSc1nnc(NC(=O)CN2CCCCC2)s1 | 6% | -8.0% | -1% | ·
O=C(O)CC(c1ccc(Cl)cc1)n1cccc1 (configuration not stated) | 11% | -0.2% | 0% | -2
O=C(CCN1C(=O)c2ccccc2S1(=O)=O)Nc1ccc(C(=O)O)cc1 | -20% | -4.3% | 0% | ·
CC1CC(C)CN(C(=O)C2CCN(S(=O)(=O)c3c(Cl)cccc3Cl)CC2)C1 (configuration not stated) | 3% | 0.0% | -5% | ·
COc1ccc(N2C(=O)S[C@@H]3CS(=O)(=O)C[C@@H]32)cc1 | -8% | -5.1% | -8% | 2
Cc1sc2ncnc(N3CCC(C(=O)NNC(=O)c4ccc(F)cc4)CC3)c2c1C | 18% | -2.7% | · | ·
COc1ccc(NC(=O)Cn2nnc(C(=O)NCc3cccs3)c2N)cc1Cl | 2% | 0.0% | -14% | ·
O=C(CCN1C(=O)COc2ccccc21)NCCCN1CCN(c2ccc(F)cc2)CC1 | 7% | -2.0% | 1% | -26
COc1ccc(C(=O)Nc2ccc(OCc3ccccc3)cc2)cc1[N+](=O)[O-] | 2% | 0.3% | -4% | -4
Cc1cc(C)n2c(SCC(O)=C(C#N)c3nc4ccccc4[nH]3)nnc2n1 | -15% | ? | · | ·
CN(CC(=O)Nc1ccccc1C(F)(F)F)C(=O)CC1OC(=O)c2ccccc21 (configuration not stated) | 20% | 3.8% | -2% | ·
CC(=O)Oc1ccc(-c2nc3ccccc3c(=O)o2)cc1 | ? | 0.7% | 1% | ·
O=C(CCN1C(=O)c2ccccc2C1=O)N(CCO)Cc1ccccc1 | 6% | ? | 0% | -10
CC1SCC(=O)N(CC(=O)NC2CCCCC2)C1=O (configuration not stated) | 0% | 14% | 0% | 0
CC(/C=C/c1cccc([N+](=O)[O-])c1)=N\NC(=O)c1ccncc1 | 3% | 2.7% | 6% | 3
Cc1cc(C)c(NC(=O)COC(=O)c2nc3nccc(C)n3n2)c(Cl)c1 | 2% | 0.1% | · | ·
CCc1cccc(N=c2c([N+](=O)[O-])nn(-c3ccc(Cl)cc3)n2O)c1 | 6% | -2.1% | 1% | 0
N=c1n(CCO)c2ccccc2n1CCOc1ccc(Cl)cc1Cl | 6% | 7.7% | ? | -2
COC(=O)[C@@H]1C[C@@H]2CC[C@@H](O)C[C@@H]2N1Cc1ccc(C(F)(F)F)cc1 | -8% | -0.7% | 6% | -3&-5
CN(c1ccccc1C(=O)Nc1ccc(S(=O)(=O)N2CCCCC2)cc1)S(C)(=O)=O | -20% | ? | -4% | 2
CC(C)C[C@H]1CNC(=O)C(=O)N1CC1CCN(CCC(C)(C)C)CC1 | -18% | -4.3% | · | ·
CCc1cccc(C)c1N=Cc1c(O)c2ccccc2oc1=O | 19% | -2.5% | 6% | ·
CCOc1cc(N2CCOCC2)c(OCC)cc1NC(=O)c1ccc(S(=O)(=O)N(C)C)cc1 | 11% | 7.2% | 1% | 3
Cc1c(CCC(=O)N[C@@H](C)C(=O)O)c(=O)oc2c(C)c3oc4c(c3cc12)CCCC4 | 2% | 1.4% | 12% | ·
COC(=O)C(CC(C(=O)OC)C(=O)OC)C(=O)OC | 11% | 2.0% | 0% | 4
Cc1ccccc1OCCCC(=O)Nc1ccc(Br)cc1 | -20% | -3.3% | -21% | 3
CC1(NC(=O)Cc2ccc(Cl)c(Cl)c2)CCS(=O)(=O)C1 (configuration not stated) | -7% | -7.3% | · | ·
O=c1c2ccccc2[nH]c2ccc(O)cc12 | ? | -1.9% | -39% | ·
O=C(Nc1ccccn1)c1cccc(S(=O)(=O)N2CCCc3ccccc32)c1 | 5% | -5.5% | · | ·

Part of the list above, reduced to GLA inh pH 4.5 and Rango dissoc inh.
Compound,GLA inh pH 4.5,Rango dissoc inh
N=c1n(CCO)c2ccccc2n1CCOc1ccc(Cl)cc1Cl,-2,6%
CCc1cccc(C)c1N=Cc1c(O)c2ccccc2oc1=O,·,19%
Cc1c(CCC(=O)N[C@@H](C)C(=O)O)c(=O)oc2c(C)c3oc4c(c3cc12)CCCC4,·,2%

A draw from above in order of number of heavy atoms, low to high:
SMILES | Rango dissoc inh | Rango-impB inh | miR-21 reporter | GLA inh pH 4.5
COC(=O)C(CC(C(=O)OC)C(=O)OC)C(=O)OC | 11% | 2.0% | 0% | 4
N=c1n(CCO)c2ccccc2n1CCOc1ccc(Cl)cc1Cl | 6% | 7.7% | ? | -2
CN(c1ccccc1C(=O)Nc1ccc(S(=O)(=O)N2CCCCC2)cc1)S(C)(=O)=O | -20% | ? | -4% | 2
CCOc1cc(N2CCOCC2)c(OCC)cc1NC(=O)c1ccc(S(=O)(=O)N(C)C)cc1 | 11% | 7.2% | 1% | 3

Next results follow:
SMILES | Rango dissoc inh | Rango-impB inh | miR-21 reporter | GLA inh pH 4.5
COc1ccccc1N1CCN(Cc2cn[nH]c2-c2ccc(F)cc2)CC1 | 0% | 1.2% | 4% | 1
CC(=O)C(C)Oc1ccc2c3c(c(=O)oc2c1)CCCCC3 (configuration not stated) | 2% | -0.7% | -66% | -1
COCCCN(CC(=O)O)S(=O)(=O)c1ccccc1 | -10% | -1.1% | 1% | 0
CC1Oc2ccccc2N(CC(=O)NC2CCCC2)C1=O (configuration not stated) | -8% | -1.2% | 0% | ·
CN1CCN(c2ccc(Cl)cc2NC(=O)/C=C/c2cccc(F)c2)CC1 | -7% | -3.8% | -5% | -4
C=CCOc1ccc(C=Nc2ccc(C)c(Cl)c2)c(O)c1 | 0% | -1.4% | -8% | -24
CN(C)CCCN=c1cc(-c2ccccc2)oc2ccc(Cl)cc12 | -17% | 3.2% | -55% | -9
O=C(NCC(c1cccnc1)N1CCN(c2ccccc2)CC1)C1CCCCC1 (configuration not stated) | 0% | 0.4% | -1% | -7
COC(=O)c1cc(/C=C/c2ccccc2)on1 | 14% | 3.4% | -7% | 2
O=C(N/N=C/c1c[nH]c2ccccc12)c1ccc([N+](=O)[O-])cc1Cl | 9% | 5.2% | -4% | ·
Cc1ccc(S(=O)(=O)N2CCN(CC(O)CN3CCOCC3)CC2)cc1 (configuration not stated) | -14% | -2.7% | · | ·
CN1CCN(C(=O)CSc2nc(-c3cccs3)ccc2C#N)CC1 | -4% | ? | -37% | 16
COc1ccccc1N1C(=O)c2ccccc2NC1c1ccc(O)cc1 (configuration not stated) | -2% | -2.6% | -17% | ·
Cc1cc2c(c(CO)c1CCO)C(=O)[C@@H](C)[C@@H]2O | -3% | -4.1% | · | ·
O=C(CSc1ncnc2scc(-c3ccc(F)cc3)c12)c1ccc2c(c1)OCCO2 | 29% | ? | -18% | 9
Cc1cccnc1NC(=O)c1ccc(S(=O)(=O)N2CCCCC2)cc1 | 6% | 0.0% | · | ·
O=C(Nc1ccccn1)c1ccc(S(=O)(=O)N2CCCCCC2)cc1 | 1% | -0.4% | · | ·
C=CCC(=O)OCC(=O)Nc1ccc(Oc2ccccc2)cc1 | · | · | 4% | -2
Cc1c(Cl)cccc1N(CC(=O)N1CCCCCC1)S(C)(=O)=O | -8% | -1.3% | 0% | -4
COc1cccc(NC(=O)CN(C)CC(=O)Nc2cccc(C(F)(F)F)c2)c1 | -7% | 2.1% | -3% | ·
Cc1nc2ccc(C(=O)Nc3ccccc3Cl)cc2s1 | -18% | 3.4% | -64% | ·
CCOC(=O)C(NCCc1ccc(F)cc1)(NC(=O)CC)C(F)(F)F (configuration not stated) | 1% | 0.8% | -1% | -5
O=C(c1ccc2c(c1)OCO2)C1CCCN(C(=O)Nc2ccc(F)cc2F)C1 (configuration not stated) | 5% | 2.6% | -13% | 1
COc1ccc(OC)c(NC(=O)COC(=O)Cn2nnc(-c3ccccc3)n2)c1 | -15% | 4.6% | · | ·
CC(CC(F)(F)F)N1CCC(n2nccc2NC(=O)CCCc2ccccc2)CC1 (configuration not stated) | -4% | ? | 0% | ·
